From PubChem BioAssay
MenB inh: blocks the Mycobacterium tuberculosis MenB enzyme | P9WNP5 | MenB enzyme assay, absorbance read-out; some hits fall short of the stated cut | inhibition, %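 (about 12 µg/mL by stock and volumes)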 | 100,000 tested, 0.43% active;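 active = mean of two replicates above 30%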;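 note: 0% = no compound and 100% = wells with inactive enzyme; the first replicate is given; strong numbers were not always called active; inactives centre near -10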
Target sequence (P9WNP5 whole entry, looked up): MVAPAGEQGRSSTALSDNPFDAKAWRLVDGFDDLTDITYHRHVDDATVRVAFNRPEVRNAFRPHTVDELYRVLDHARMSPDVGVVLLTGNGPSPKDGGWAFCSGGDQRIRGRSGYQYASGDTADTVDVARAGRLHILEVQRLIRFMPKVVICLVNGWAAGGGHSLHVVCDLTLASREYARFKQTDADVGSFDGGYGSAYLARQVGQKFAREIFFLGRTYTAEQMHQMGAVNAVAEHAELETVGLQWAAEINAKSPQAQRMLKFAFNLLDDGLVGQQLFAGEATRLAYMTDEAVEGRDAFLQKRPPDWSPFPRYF
Mtb MbtI inh: inhibitors of Mycobacterium tuberculosis siderophore enzyme MbtI. purified MbtI enzyme, fluorescence intensity read-out. inhibition, %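 (about 17 µg/mL by stock and volumes)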. 100,000 tested, 0.89% active;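 active = above 50% in both replicates, above 80% if mildly self-fluorescent; inactive = the rest, strongly fluorescent compounds included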;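 note: 0% = mean of negative and 100% = mean of positive controls; one replicate is shown; some compounds called inactive have numbers as strong as hits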
Target sequence (P9WFX0 whole entry, looked up): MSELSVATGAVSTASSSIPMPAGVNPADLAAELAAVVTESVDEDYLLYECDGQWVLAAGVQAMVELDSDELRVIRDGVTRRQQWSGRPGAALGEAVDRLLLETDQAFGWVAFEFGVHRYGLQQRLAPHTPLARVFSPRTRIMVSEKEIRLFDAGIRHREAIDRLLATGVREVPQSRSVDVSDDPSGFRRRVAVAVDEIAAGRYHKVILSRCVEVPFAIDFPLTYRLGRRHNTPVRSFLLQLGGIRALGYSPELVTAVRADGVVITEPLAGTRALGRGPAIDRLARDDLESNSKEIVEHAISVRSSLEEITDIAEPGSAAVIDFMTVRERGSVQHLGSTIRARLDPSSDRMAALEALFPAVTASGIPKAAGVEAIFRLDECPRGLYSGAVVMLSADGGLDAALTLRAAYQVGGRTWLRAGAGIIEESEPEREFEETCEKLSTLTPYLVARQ
Polio RdRp inh: inhibitors of poliovirus RNA polymerase binding and polymerization; poliovirus polymerase elongation, fluorescence polarization; active compounds read low; P03300; AID 588519; % elongation, % (compound at 16.7 µg/mL); 150,000 tested, 0.66% active; in the data active = % elongation below about 90%; note: some results filed as inactive read as strong as hits
Polio RdRp inh intensity: further read-out of Polio RdRp inh, marked with its call; % elongation; measured here: total intensity read-out; formula for this scale not given here;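 total fluorescence in place of polarization; lower means less elongation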
Active calls of the source: *; · = no result given; & = joins results of further samples.

SMILES | Polio RdRp inh | MenB inh | Mtb MbtI inh | Polio RdRp inh intensity
Oc1ccc(C2CC3CC2C2C=CCC32)cc1 (configuration not stated) | 99 | · | -3 | 100
O=c1/c(=C/c2ccc(Br)cc2)sc2nncn12 | 97 | 33* | 15 | 97
CCC1CCCCN1Cc1c(O)ccc2cc(-c3nc4ccccc4[nH]3)c(=O)oc12 (configuration not stated) | 69 | -58 | -5 | 194
CCN1C(=O)/C(=N\N2CCOCC2)c2ccccc21 | 104 | -119 | 7 | 93
CN1C(C(=O)c2ccccc2)=C(N2CCOCC2)c2ccccc2S1(=O)=O | 106 | -36 | -10 | 111
CSCCCN1CCOCC1 | 100 | -16 | -8 | 104
COc1ccc(-c2cc(-c3nnc(N)o3)no2)cc1OC | 101 | 2 | -16 | 103
CCOC(=O)C1CCN(C(=O)CCc2nc3ccccc3[nH]2)CC1 | 103 | -6 | -4 | 104
O=C(CNC(=O)c1ccccc1)OCC1CCCN2CCCCC12 (configuration not stated) | 108 | 3 | · | 111
O=S(=O)(NCC(c1cccs1)S(=O)(=O)c1ccccc1)c1ccccc1 (configuration not stated) | 99&100 | -25 | -3 | 105&101
CC(=O)OC1CCC2(C#N)[C@H]3CCC4(C)C(C5=CC(=O)OC5)CCC4(O)[C@@H]3CCC2(O)C1 (some centres not stated) | 102 | 7 | -4 | 103
CC(=O)N1N=C(c2ccccc2)CC1c1ccc(F)cc1 (configuration not stated) | 105 | -5 | · | 113
O=C(Nc1ccc(Cl)cn1)C1Cc2ccccc2C1 | 101 | -15 | -10 | 107
C=CCn1c(=O)c(C2=NS(=O)(=O)c3ccccc3N2)c(O)c2ccccc21 | 102 | -10 | -10 | 101
Cc1nc(N(CCO)C2CCCCC2)c2nnn(Cc3ccccc3)c2n1 | 104 | -14 | -9 | 102
O=C(Oc1ccccc1F)N1c2ccccc2Sc2ccccc21 | 109 | -12 | · | 113
CC1CC(C)CN(C(=O)Cn2nnc(-c3cccc(C(F)(F)F)c3)n2)C1 (configuration not stated) | 107 | -34 | -2 | 110
CCN(Cc1ccccc1)C(=O)CN1C(=O)C2CC=CCC2C1=O (configuration not stated) | 98 | 13 | -2 | 104
CC(CCc1ccccc1)NC(=O)C1=COCCO1 (configuration not stated) | 106 | -26 | -3 | 95
COc1ccc(C2N3CC(C)(C)CN23)cc1 (configuration not stated) | 103 | -2 | -3 | 103
CCC1CCC(N2CCN(c3ccc(Cl)cc3)CC2)CC1 (configuration not stated) | 99 | 8 | -16 | 103
O=C(CNc1ccc(S(=O)(=O)N2CCCC2)cc1)N1CCN(S(=O)(=O)c2ccccc2)CC1 | 104 | -10 | 22 | 105
CCNC(=O)CN1C(=O)CSc2nc(C)cc(C)c21 | 102 | -10 | 0 | 104
CCCCn1c(COc2ccccc2)nc2ccccc21 | 104 | -23 | -8 | 108
Cc1ccc(CNC(=O)c2ccc3c(Cl)c4c(nc3c2)CCCC4)o1 | 102 | -4 | 12 | 103
CC(Oc1ccc(Cl)cc1)/C(N)=N/O (configuration not stated) | 100 | 10 | -6 | 102
CCS(=O)(=O)n1nc(-c2ccco2)nc1N | 100 | -31 | 11 | 102
C=CCn1c(C)nnc1SC(C)C(=O)c1c(C)[nH]c2ccccc12 (configuration not stated) | 101 | -11 | 9 | 100
COc1ccc(/C=N/c2nc3ccccc3n2C)c2c(OC)cccc12 | 99 | -55 | -8 | 101
O=C(CCCCCN1C(=O)CCC1=O)Nc1ccccc1 | 99 | -17 | 2 | 103
Nc1cccc(-n2nncc2-c2ccc(Cl)cc2)c1 | 100 | · | 8 | 96
COc1ccc(C(=O)CNc2cccc(Cl)c2C)cc1 | 101 | · | -3 | 98
Cc1cccn2cc(-c3cccc(Br)c3)nc12 | 103 | · | -128 | 108
O=C(c1ccc(Br)c(S(=O)(=O)N2CCCCC2)c1)N1CCCCC1 | 103 | -27 | -10 | 104
CCOC(=O)CN1CC=CCC1 | 99 | 12 | 5 | 102
CCOC(=O)c1n[nH]c2c1CCCC2 | 103 | -3 | -5 | 104
Cc1cc(C)nc(N/N=C/C=N/Nc2nc(C)cc(C)n2)n1 | 107 | 17 | -2 | 114
CCC(=O)N1CCc2cc(S(=O)(=O)NCCC(=O)Nc3ccc(OC(F)(F)F)cc3)ccc21 | 103 | -9 | -10 | 105
O=C(Cn1ncc2ccccc21)N1CCC2(CC1)OCCO2 | 104 | 6 | -2 | 103
O=C(CN1CCCC1)Nc1ccccc1C(=O)c1ccccc1 | 102 | -13 | -17 | 111
CC1CC(C)CN(C(=O)COc2ccc(-c3nnco3)cc2)C1 (configuration not stated) | 102 | 10 | 3 | 101
Cc1ccc(C)c(OCC(O)CNC2CCC(C)CC2)c1C (configuration not stated) | 105 | -10 | -10 | 109
CCN1Cc2cccc(C(=O)O)c2C1=O | 102 | -12 | -12 | 105
CCOc1ccc(-c2c(C)nn3c2NCN(Cc2ccc(C)cc2)C3)cc1OCC | 100 | 2 | -1 | 105
Cc1nc(C(=O)Nc2cccc(Cl)c2Cl)c(C(F)(F)F)o1 | 102 | -7 | -4 | 103
C=CCN(CC=C)CC(O)Cn1c(C)c(C)c2ccccc21 (configuration not stated) | 101 | 3 | -11 | 104
CC1Cc2ccccc2N1C(=O)CO/N=C/c1ccccc1OC(F)F (configuration not stated) | 105 | 18 | 10 | 102
CN(Cc1ccccc1)C(=O)CCc1nc(CN2CCN(C(=O)c3ccccc3)CC2)no1 | 102 | 10 | 1 | 103
N#CC(Sc1nc(-c2cccs2)cc(-c2ccccc2)c1C(=O)O)c1ccc(Cl)cc1 (configuration not stated) | 105 | -4 | · | 98
COc1ccc(-c2cc(-c3nnc(CON4C(=O)CCC4=O)o3)c3ccccc3n2)cc1OC | 107 | -12 | -13 | 113

Results in Polio RdRp inh and Mtb MbtI inh, for 2 of the compounds above:
Molecule	Polio RdRp inh	Mtb MbtI inh
Cc1ccc(CNC(=O)c2ccc3c(Cl)c4c(nc3c2)CCCC4)o1	102	12
O=C(CNC(=O)c1ccccc1)OCC1CCCN2CCCCC12 (configuration not stated)	108	·

Among those listed so far, 2 contain an aryl thioether with sulfur outside any ring.
SMILES | Polio RdRp inh | MenB inh | Mtb MbtI inh | Polio RdRp inh intensity
C=CCn1c(C)nnc1SC(C)C(=O)c1c(C)[nH]c2ccccc12 (configuration not stated) | 101 | -11 | 9 | 100
N#CC(Sc1nc(-c2cccs2)cc(-c2ccccc2)c1C(=O)O)c1ccc(Cl)cc1 (configuration not stated) | 105 | -4 | · | 98

Returning to the listing, repeating the 2 entries before the break.
SMILES | Polio RdRp inh | MenB inh | Mtb MbtI inh | Polio RdRp inh intensity
N#CC(Sc1nc(-c2cccs2)cc(-c2ccccc2)c1C(=O)O)c1ccc(Cl)cc1 (configuration not stated) | 105 | -4 | · | 98
COc1ccc(-c2cc(-c3nnc(CON4C(=O)CCC4=O)o3)c3ccccc3n2)cc1OC | 107 | -12 | -13 | 113
c1ccc(-n2c(-c3ccco3)nnc2N2CCOCC2)cc1 | 104 | -1 | -19 | 104
COC(=O)c1ccc(C2N(Cc3ccccc3)CCN2Cc2ccccc2)cc1 | 105 | -6 | · | 98
CCOc1ccc(NC(=O)CSc2ccnc3c2c(=O)n(C)c(=O)n3C)cc1 | 99 | 6 | -7 | 105
CC(=O)NC1=NN(C(C)=O)C(C)(CS(=O)(=O)c2ccc(C)c(C)c2)S1 (configuration not stated) | 101 | 23 | 50 | 102
CC1(C)Cc2cccc(OCC(=O)Nc3ccc(S(=O)(=O)N4CCCC4)cc3)c2O1 | 102 | -11 | -2 | 101
OCC1(CO)C2C3C4CC5C6C4C2C6C1C53 (configuration not stated) | 101 | -10 | -1 | 103
COc1ccc2oc(=O)c(-c3nc4ccc(OC)cc4[nH]3)cc2c1 | 97 | -4 | -12 | 106
NC(=S)Nc1ccc(F)c(Cl)c1 | 106 | -21 | 19 | 108
N#Cc1ccc(COC(=O)c2ccc3c(c2)NC(=O)C2CCCN32)cc1 (configuration not stated) | 107 | 16 | -83 | 102
Cc1ccccc1CNC(=O)Cn1ncc2ccccc21 | 106 | 1 | 5 | 109
COc1ccc2[nH]c3c(N(C)C)ncnc3c2c1 | 100 | · | -152 | 95
Cc1ccc(-c2noc(-c3cc(C(C)(C)C)nn3Cc3ccccc3)n2)cc1 | 105 | -9 | -6 | 109
COC(=O)Cc1cc(=O)n(C(C)(C)C)[nH]1 | 103 | -43 | -8 | 109
O=C(CC1CCCCC1)Nc1ccc2nc3n(c(=O)c2c1)CCCCC3 | 106 | -22 | -5 | 108
O=C(COC(=O)C1CC(=O)N(Cc2ccco2)C1)c1ccc(-c2ccccc2)cc1 (configuration not stated) | 102 | -25 | -3 | 97
COc1ccc(CCNC(=O)Cn2cnc3c(nnn3Cc3ccc(F)cc3)c2=O)cc1OC | 102 | -10 | -7 | 101
Cn1cc(S(=O)(=O)NC2CCCCCCC2)c(S(=O)(=O)NC2CCCCCCC2)c1 | 102 | -6 | 0 | 106
O=C(COC(=O)c1cc2ccccc2cc1O)NC1CC1 | 103 | -3 | -1 | 102
CC1CCCCN1S(=O)(=O)c1ccc(C(=O)Nc2nc(-c3ccc4c(c3)OCO4)cs2)cc1 (configuration not stated) | 103 | -34 | 15 | 105
CCOc1ccc(-n2c(=O)c3c4c(sc3n(CC(=O)N(CC)CC)c2=O)CCCCC4)cc1 | 102 | -7 | -7 | 108
O=C(Nc1ccccc1C(=O)Nc1ccc(Br)cc1)c1ccco1 | 103 | -2 | -5 | 101
Cc1ccc(NCC(=O)N/N=C/c2ccncc2)cc1 | 103 | -66 | 22 | 103
COC(=O)CN(c1ccc(C)c(C)c1)S(C)(=O)=O | 102 | -71 | -12 | 102
CCOC(=O)c1c(CN2CCCC2)oc2ccc(OC)cc12 | 102 | -2 | 36 | 102
CCN(CC)S(=O)(=O)c1ccc(C(=O)NCc2ccc3c(c2)cc(C)n3C)cc1 | 100 | -5 | 4 | 104
CCOC(=O)c1ccc(Nc2ncnc3[nH]ncc23)cc1 | 104 | -27 | -86 | 100
CC(=O)OCC(=O)[C@@]1(OC(C)=O)[C@@H](C)C[C@H]2[C@@H]3C[C@H](F)C4=CC(=O)C=C[C@]4(C)[C@@]3(F)[C@@H](O)C[C@@]21C | 102 | -2 | -9 | 100
CCN1C(=O)/C(=c2/sc3nc4ccccc4n3c2=O)c2ccccc21 | 103 | 1 | · | 104
CCCc1c(C(=O)O/N=C/c2ccc(C#N)cc2)cnn1-c1ccccc1 | 103 | -10 | 1 | 106
O=C(CSc1ccccc1C(=O)Nc1nccs1)NCc1ccco1 | 105 | -4 | 5 | 121
COc1ccc(C2C3=C(CCCC3=O)N=C3c4ccccc4C(=O)C32)cc1 (configuration not stated) | 101 | -44 | 4 | 91
Cc1occc1-c1n[nH]c(=S)n1C | 103 | -21 | 26 | 98
Nc1nc2[nH]c(=S)[nH]c2c(=O)[nH]1 | 95 | -13 | 103 | 93
CCc1cc2c3c(c(=O)oc2cc1OC)CCCC3 | 102 | 7 | -1 | 104
CCc1cc(=O)oc2c(O)c(O)ccc12 | 98 | -14 | 20 | 101
O=C(CCn1cccc1)NC1CC1 | 101 | -2 | -29 | 102
CCOc1cccc(NC(=O)C2CC(=O)N(/N=C(\C)c3ccc(Br)s3)C(=N)S2)c1 (configuration not stated) | 103 | -27 | 0 | 109
Nc1ccc(C(=O)NCC2COc3ccccc3O2)cc1 (configuration not stated) | 101 | 3 | -10 | 103
O=C(Nc1nccs1)c1ccc(N2C(=O)CCC2=O)cc1 | 105 | -2 | 12 | 104
O=C1N(CN2CCCCCC2)c2ccccc2C12OCCO2 | 105 | -9 | -1 | 102
O=C(NCC1COc2ccccc2O1)Nc1ccc(NC(=O)NCC2COc3ccccc3O2)cc1 (configuration not stated) | 100 | 5 | -4 | 105
O=C(c1sc2ccccc2c1Cl)N1CCCCC1 | 102 | -41 | -8 | 102
CCCCN1C(=O)c2ccc(C(=O)OCC(=O)Nc3ncc(Cl)cc3Cl)cc2C1=O | 103 | -12 | -3 | 112
NCCc1nnc(SCc2ccc(Cl)cc2)o1 | 99&105 | -41 | -2 | 95&101
C=C(C)CNCC1OCCc2ccccc21 (configuration not stated) | 107 | -3 | · | 115
O=C(NCc1ccco1)C(=S)N1CCOCC1 | 99 | -6 | 76* | 99
COc1ccccc1N1CCN(C(=O)CC(C)c2ccccc2)CC1 (configuration not stated) | 103 | 0 | · | 105
CC(C)NC(=O)/C(C#N)=C/c1ccc2c(c1)OCCO2 | 102 | -20 | 4 | 109
c1ccc2cc3cnccc3cc2c1 | · | -15 | 116 | ·
CC/C(=C\c1ccccc1)CN1CCCCC1 | 102 | -22 | 6 | 105

Following part:
SMILES | Polio RdRp inh | MenB inh | Mtb MbtI inh | Polio RdRp inh intensity
Cc1nc2nc(COc3ccccc3)[nH]n2c(=O)c1C | 100 | -7 | 0 | 99
CCCS(=O)(=O)N1N=C(c2ccc(Cl)cc2)CC1c1ccco1 (configuration not stated) | 75 | -18 | 5 | 176
COc1cccc(-c2csc(-c3ccccn3)n2)c1 | 101 | -3 | 33 | 103
COC(=O)C1=C(N)OC2=C(C(=O)CCC2)C12C(=O)Nc1ccccc12 (configuration not stated) | 102 | -1 | -5 | 102
